Compound activity: PubChem, several laboratories
MT1-MMP promoter: inhibitors of MT1-MMP promoter transcription, cell-based, luciferase reporter, luminescence (AID 618). MT1-MMP promoter luciferase reporter cells, luminescence. 87,000 compounds, 0.62% hits. calls from a first round at 10 µM; hits with a dose series show EC50 in µM;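 active means over half of the reporter light lost at 10 µM or EC50 under 50 µM; inactive means the rest and hits that failed the dose series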;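 further: actives suppress MT1-MMP promoter-driven transcription so potencies describe inhibitors; HT1080 fibrosarcoma cells; overnight exposure; toxic or luciferase-blocking compounds were not removed from the actives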
WNV NS2B-NS3 inh: inhibitors of WNV NS2B-NS3 protease, primary screen, biochemical, fluorogenic substrate; Genome polyprotein (West Nile virus), P06935; fluorogenic substrate Ex360/Em465; active compounds read low; z-score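 (tested at a level between 10 and 100 µM)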; 65,000 compounds, 0.18% hits;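 active means z-score at -3 or under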;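 further: score is relative to mean and spread of the compound wells of a plate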
Target sequence (P06935 1371-1501 limits assumed): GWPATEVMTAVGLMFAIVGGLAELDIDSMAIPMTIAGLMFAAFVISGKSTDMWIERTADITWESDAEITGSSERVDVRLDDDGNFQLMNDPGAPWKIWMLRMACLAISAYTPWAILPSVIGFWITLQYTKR
Target sequence (P06935 1502-1679 limits assumed): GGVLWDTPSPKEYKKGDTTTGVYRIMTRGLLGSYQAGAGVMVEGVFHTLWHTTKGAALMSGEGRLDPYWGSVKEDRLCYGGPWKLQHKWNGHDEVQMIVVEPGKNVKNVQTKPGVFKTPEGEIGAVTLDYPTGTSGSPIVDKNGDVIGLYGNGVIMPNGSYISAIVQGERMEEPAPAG
Hsc70: Hsc70 inhibitors, probe displacement, primary screen, biochemical, fluorescence polarization (AID 568). Hsc70 fluorescence polarization, probe displacement; higher % means a stronger effect; strong numbers were not always called active. one-dose displacement, % at 20 µM; IC50 in µM for titrated hits. 83,000 tested, under 10 active;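 active means displacement above 50% without optical interference and an IC50 on retest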;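 further: ATPase domain with a fluorescein-tagged ATP probe; 0% = vehicle and 100% = excess ADP; read after one hour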
* hit, by the source's call.

Results for COC(=O)c1ccccc1NC(=O)c1c(O)c2c([nH]c1=O)CCCC2 ?
MT1-MMP promoter: inactive; WNV NS2B-NS3 inh: -1.9; Hsc70: -1.1%

What do the screens show for `CN1C(=O)OC2(C)CCc3ccccc3C12C` (stereo not given)?
MT1-MMP promoter: inactive; WNV NS2B-NS3 inh: -0.95; Hsc70: -2.1%

Results for CCOC(=O)c1csc(Nc2nc3ccc(F)cc3s2)n1 ?
MT1-MMP promoter: inactive; WNV NS2B-NS3 inh: -0.7; Hsc70: -31%

Results for Cc1ccccc1OCC(=O)N(Cc1nc(-c2ccccc2)no1)C(C)C ?
MT1-MMP promoter: inactive; WNV NS2B-NS3 inh: -0.12; Hsc70: 2.0%

What do the screens show for `COCCNC(=O)c1ccc(CS(=O)(=O)c2ccc(OC)cc2)o1`?
MT1-MMP promoter: inactive; WNV NS2B-NS3 inh: -1.3; Hsc70: 5.6%

How did O=C1NCN(c2ccccc2)C12CCN(c1nnnn1-c1ccccc1)CC2 do in these assays?
MT1-MMP promoter: inactive; WNV NS2B-NS3 inh: -0.42; Hsc70: -0.1%

Results for O=C(CN1CCC(NC(=O)c2ccco2)CC1)Nc1cccc2ccccc12 ?
MT1-MMP promoter: inactive; Hsc70: -1.2%

Results for Brc1nnc2n1-c1ccccc1Sc1ccccc1-2 ?
MT1-MMP promoter: inactive; Hsc70: -0.2%

What do the screens show for `O=C(CSCc1ccco1)Nc1cc(C(F)(F)F)ccc1N1CCOCC1`?
MT1-MMP promoter: inactive; WNV NS2B-NS3 inh: -1.3; Hsc70: -2.5%

How did Cc1cccc(-n2c(Cc3cc(=O)[nH]c(=O)[nH]3)nnc2SC(C)C)c1 do in these assays?
MT1-MMP promoter: inactive; WNV NS2B-NS3 inh: 2.9; Hsc70: 0.0%

Results for Cc1cc2oc(=O)cc(COC(=O)Cn3cnnn3)c2cc1C(C)C ?
MT1-MMP promoter: inactive; WNV NS2B-NS3 inh: 0.39; Hsc70: -0.7%

How did CCS(=O)(=O)N1CCN(C2CCC(c3ccccc3)CC2)CC1 (stereo not given) do in these assays?
MT1-MMP promoter: inactive; WNV NS2B-NS3 inh: 0.48; Hsc70: -2.9%

Results for COc1cc(C)c(-c2cc(C(=O)O)c(C)o2)cc1C(C)C ?
MT1-MMP promoter: inactive; WNV NS2B-NS3 inh: 0.35; Hsc70: 4.0%

How did CCCCCCNC(=O)c1cc(-c2ccco2)nc2ccccc12 do in these assays?
MT1-MMP promoter: inactive; Hsc70: -7.6%

How did O=C(CCN1C(=O)c2ccccc2C1=O)N1CCOCC1 do in these assays?
MT1-MMP promoter: inactive; Hsc70: 0.1%

What do the screens show for `Cc1cc(C(=O)N2CCN(C(c3ccccc3)c3ccccc3)CC2)on1`?
MT1-MMP promoter: inactive; WNV NS2B-NS3 inh: -0.67; Hsc70: 0.7%

What do the screens show for `CCOc1ccc(OCC)c(NC(=O)CSc2nnc(Cn3cnc4ccccc43)n2C)c1`?
MT1-MMP promoter: inactive; WNV NS2B-NS3 inh: 1.7; Hsc70: 1.4%

Results for CCOC(=O)COn1c(=O)c(=O)n(OC)c2ccccc21 ?
MT1-MMP promoter: inactive; WNV NS2B-NS3 inh: 3; Hsc70: -4.8%

What do the screens show for `O=C(C1CCC(Cn2c(=S)[nH]c3ccccc3c2=O)CC1)N1CCOCC1` (stereo not given)?
MT1-MMP promoter: inactive; WNV NS2B-NS3 inh: -0.31; Hsc70: 2.2%

What do the screens show for `O=C(NCc1ccco1)c1ccccc1-c1nc(-c2ccccc2)no1`?
MT1-MMP promoter: inactive; Hsc70: -0.5%

How did CCC(C)c1ccccc1NC(=S)Nc1cccnc1 (stereo not given) do in these assays?
MT1-MMP promoter: inactive; Hsc70: -3.8%

Results for N#Cc1nc(COc2ccc(Cl)cc2)oc1N1CCCCCC1 ?
MT1-MMP promoter: inactive; WNV NS2B-NS3 inh: 0.8; Hsc70: -3.3%

Results for CCC(Oc1ccccc1)C(=O)Nc1ccc(-c2nnc(-c3ccco3)o2)cc1 (stereo not given) ?
MT1-MMP promoter: inactive; WNV NS2B-NS3 inh: -0.03; Hsc70: -4.3%

How did O=C(Nc1ccc2snnc2c1)N1CCOCC1 do in these assays?
MT1-MMP promoter: inactive; WNV NS2B-NS3 inh: 0.1; Hsc70: -0.8%

How did CS(=O)(=O)NCc1csc(-c2ccccc2)n1 do in these assays?
MT1-MMP promoter: inactive; WNV NS2B-NS3 inh: 0.13; Hsc70: -1.2%

What do the screens show for `CN(C)C=Nc1ncc2c3ccccc3n(CCN(C)C)c2c1C#N`?
MT1-MMP promoter: inactive; WNV NS2B-NS3 inh: 0.97; Hsc70: -9.5%

Results for Cc1ccc(-n2nnc3c(SCC(=O)NCC4CCCO4)ncnc32)cc1 (stereo not given) ?
MT1-MMP promoter: inactive; WNV NS2B-NS3 inh: -0.6; Hsc70: -2.1%

What do the screens show for `CCOC(=O)C1CCCN(c2cc(C)nc3cc(-c4ccc(Cl)cc4)nn23)C1` (stereo not given)?
MT1-MMP promoter: inactive; Hsc70: -0.6%

Results for CCOC(=O)CSc1nnc(Cc2cc(=O)[nH]c(=O)[nH]2)n1-c1ccc(Cl)cc1 ?
MT1-MMP promoter: inactive; WNV NS2B-NS3 inh: 0.02; Hsc70: -0.8%

What do the screens show for `Cc1ccc(NC(=O)Nc2ccc3oc(C)nc3c2)cc1`?
MT1-MMP promoter: inactive; Hsc70: 0.8%

Results for Cc1occc1C(=O)Nc1nccs1 ?
MT1-MMP promoter: inactive; WNV NS2B-NS3 inh: 0.07; Hsc70: -2.8%

Results for O=C(Nc1nnc(-c2ccncc2)s1)C1CCCO1 (stereo not given) ?
MT1-MMP promoter: inactive; WNV NS2B-NS3 inh: -1; Hsc70: -0.4%

What do the screens show for `CCc1nc(C)ccc1OCC(=O)NCCCN(C)C`?
MT1-MMP promoter: inactive; WNV NS2B-NS3 inh: -0.62; Hsc70: -2.3%

How did Cc1cnn(C(=S)NCc2ccco2)c1 do in these assays?
MT1-MMP promoter: inactive; WNV NS2B-NS3 inh: -0.62; Hsc70: -0.1%

What do the screens show for `c1coc(-c2nc3nc4ccccc4nc3n2-c2ccc3c(c2)OCCO3)c1`?
MT1-MMP promoter: inactive; WNV NS2B-NS3 inh: -0.15; Hsc70: 1.7%

Results for C1CCC2(CC1)OCC1(CO2)COC2(CCCCC2)OC1 ?
MT1-MMP promoter: inactive; WNV NS2B-NS3 inh: 0.71; Hsc70: -1.3%

What do the screens show for `COCCNC(=O)c1cnn2c(C(F)(F)F)cc(-c3ccc4c(c3)OCO4)nc12`?
MT1-MMP promoter: inactive; WNV NS2B-NS3 inh: 0.4; Hsc70: -8.0%

How did COc1cc(OC)nc(NC(=O)CCl)n1 do in these assays?
MT1-MMP promoter: inactive; Hsc70: -0.5%

Results for Cc1cc(C(=O)CSc2nnc(-c3ccco3)o2)c(C)n1Cc1ccco1 ?
MT1-MMP promoter: inactive; WNV NS2B-NS3 inh: 0.29; Hsc70: -4.4%

How did O=C(NC12CC3CC(CC(C3)C1)C2)N1CCC(n2nnc3ccccc32)CC1 do in these assays?
MT1-MMP promoter: inactive; WNV NS2B-NS3 inh: -0.72; Hsc70: -6.2%

3 structures out of the list, ordered by formula weight, ascending.
Results for Cc1occc1C(=O)Nc1nccs1 ?
MT1-MMP promoter: inactive; WNV NS2B-NS3 inh: 0.07; Hsc70: -2.8%

Results for Cc1cc2oc(=O)cc(COC(=O)Cn3cnnn3)c2cc1C(C)C ?
MT1-MMP promoter: inactive; WNV NS2B-NS3 inh: 0.39; Hsc70: -0.7%

What do the screens show for `c1coc(-c2nc3nc4ccccc4nc3n2-c2ccc3c(c2)OCCO3)c1`?
MT1-MMP promoter: inactive; WNV NS2B-NS3 inh: -0.15; Hsc70: 1.7%

Later entries
Results for Cn1c(=O)c2c(nc(CN3CCN(c4ccccc4)CC3)n2Cc2ccccc2Cl)n(C)c1=O ?
MT1-MMP promoter: inactive; WNV NS2B-NS3 inh: -0.12; Hsc70: -0.7%

Results for Cc1ccc(-n2nc3c(c2NC(=O)c2ccc4c(c2)OCO4)CSC3)cc1 ?
MT1-MMP promoter: inactive; WNV NS2B-NS3 inh: 1.2; Hsc70: -2.8%

Results for O=C(NC1CCCCC1)C1CCCN(S(=O)(=O)c2cccs2)C1 (stereo not given) ?
MT1-MMP promoter: inactive; WNV NS2B-NS3 inh: 0.79; Hsc70: -3.2%

How did COc1ccccc1Nc1nc(N)nc(CN2CCC(Cc3ccccc3)CC2)n1 do in these assays?
MT1-MMP promoter: inactive; WNV NS2B-NS3 inh: -0.91; Hsc70: -8.5%

Results for CC(=O)c1sc(NC(=O)c2ccc(C)cc2)nc1C ?
MT1-MMP promoter: inactive; Hsc70: -3.0%

Results for COc1ccc(CCn2c(C)cc3c(c2=O)C(c2ccncc2)C(C#N)=C(N)O3)cc1OC (stereo not given) ?
MT1-MMP promoter: inactive; WNV NS2B-NS3 inh: -1.3; Hsc70: 2.8%

What do the screens show for `CCc1nc(-c2ccccc2)cc(=O)[nH]1`?
MT1-MMP promoter: inactive; Hsc70: 2.6%

What do the screens show for `CCOC(=O)N1CCC(NC(=O)c2cc(S(=O)(=O)N3CCc4ccccc43)cn2C)CC1`?
MT1-MMP promoter: inactive; WNV NS2B-NS3 inh: 1.1; Hsc70: 2.2%

What do the screens show for `O=C1c2ccccc2S(=O)(=O)N1Cc1nc2ccccc2s1`?
MT1-MMP promoter: 3.1µM*; WNV NS2B-NS3 inh: 0.0078; Hsc70: 0.5%

What do the screens show for `COc1ccc(CC(=O)OCC(=O)Nc2ncc(Cl)cc2Cl)cc1OC`?
MT1-MMP promoter: inactive; Hsc70: 4.5%

What do the screens show for `COc1ccccc1-c1cc(C(=O)N2CCN(c3ccc(F)cc3)CC2)no1`?
MT1-MMP promoter: inactive; WNV NS2B-NS3 inh: -0.19; Hsc70: 2.0%

Results for O=C(c1ccco1)N1CCN(S(=O)(=O)c2ccc3[nH]c(=O)oc3c2)CC1 ?
MT1-MMP promoter: inactive; Hsc70: 7.4%

How did c1ccc(-c2ncnc3cc4n(c23)CCC4)cc1 do in these assays?
MT1-MMP promoter: inactive; Hsc70: 2.0%

Results for COC(=O)Cn1ncc2c3ccccc3n(C)c2c1=O ?
MT1-MMP promoter: inactive; WNV NS2B-NS3 inh: 0.71; Hsc70: -4.0%

How did Cc1cc(C)nc(-n2nc(C)cc2NC(=O)c2cccc(S(=O)(=O)N(C)C)c2)n1 do in these assays?
MT1-MMP promoter: inactive; WNV NS2B-NS3 inh: -1.5; Hsc70: -1.9%

How did CCOC(=O)c1sc(NC(C)=O)c(C(=O)OCC)c1C do in these assays?
MT1-MMP promoter: inactive; WNV NS2B-NS3 inh: 1.9; Hsc70: -6.5%

What do the screens show for `CCOC(=O)c1cnn2c(C)cc(-c3ccccc3)nc12`?
MT1-MMP promoter: inactive; WNV NS2B-NS3 inh: -0.23; Hsc70: 3.1%

What do the screens show for `C/C(=N\NC(=O)CC1N=C(Cc2ccccc2)NNC1=O)c1ccccc1` (stereo not given)?
MT1-MMP promoter: inactive; Hsc70: 6.4%

Results for COc1ccc(N2C(=O)CCC(C(=O)N3CCCCCC3)C2c2ccc(OC)c(OC)c2)cc1 (stereo not given) ?
MT1-MMP promoter: inactive; WNV NS2B-NS3 inh: 0.88; Hsc70: 2.9%

What do the screens show for `CCC(C)(C)NC(=O)C(c1ccc(C)cc1)N(Cc1ccco1)C(=O)Cn1nnc2ccccc21` (stereo not given)?
MT1-MMP promoter: inactive; Hsc70: 1.7%

How did CCOC(=O)Cn1c(CCC(=O)O)ccc1-c1ccc(F)cc1 do in these assays?
MT1-MMP promoter: inactive; WNV NS2B-NS3 inh: -0.07; Hsc70: -4.4%

How did CSc1nc2ccccc2n1CC(=O)Nc1cc(C(F)(F)F)ccc1N1CCOCC1 do in these assays?
MT1-MMP promoter: inactive; Hsc70: 6.5%

What do the screens show for `CCCc1cc(C(=O)Nc2cccc(C(C)=O)c2)no1`?
MT1-MMP promoter: inactive; WNV NS2B-NS3 inh: -0.36; Hsc70: 2.6%

Results for Cn1c2c(c3ccccc31)CC/C2=N\O ?
MT1-MMP promoter: inactive; WNV NS2B-NS3 inh: -0.92; Hsc70: -1.8%

Reprinted at random: six records from the list, in no set order.
How did O=C(NC12CC3CC(CC(C3)C1)C2)N1CCC(n2nnc3ccccc32)CC1 do in these assays?
MT1-MMP promoter: inactive; WNV NS2B-NS3 inh: -0.72; Hsc70: -6.2%

Results for C1CCC2(CC1)OCC1(CO2)COC2(CCCCC2)OC1 ?
MT1-MMP promoter: inactive; WNV NS2B-NS3 inh: 0.71; Hsc70: -1.3%

What do the screens show for `CCOC(=O)N1CCC(NC(=O)c2cc(S(=O)(=O)N3CCc4ccccc43)cn2C)CC1`?
MT1-MMP promoter: inactive; WNV NS2B-NS3 inh: 1.1; Hsc70: 2.2%

Results for Cc1ccc(-n2nnc3c(SCC(=O)NCC4CCCO4)ncnc32)cc1 (stereo not given) ?
MT1-MMP promoter: inactive; WNV NS2B-NS3 inh: -0.6; Hsc70: -2.1%

How did CCCCCCNC(=O)c1cc(-c2ccco2)nc2ccccc12 do in these assays?
MT1-MMP promoter: inactive; Hsc70: -7.6%

Results for Cc1cc2oc(=O)cc(COC(=O)Cn3cnnn3)c2cc1C(C)C ?
MT1-MMP promoter: inactive; WNV NS2B-NS3 inh: 0.39; Hsc70: -0.7%

No enrichment for hits; overall some 0.8% were active at least once.
